H5N1 antiviral – MDCK cell protection from H5N1 avian flu; cytopathic effect, luminescence, 72 h; hits give high values; no value below 0 was filed and about half of the inactive calls have no number; reference of the scale not given here; inhibition, % at 50 µM; 96,000 compounds, 0.07% hits; AID 740; in the data active means inhibition above about 25%
* marks the source's active call; other numbers are inactive results; i = inactive. The list is partial; the hit share may differ from the screen's.

SMILES	H5N1 antiviral
Cc1csc2ncc(C(=O)NC(C)c3ccccc3)c(=O)n12 (stereo unspecified)	2.5
COc1cccc(-n2nnnc2SCC(=O)Nc2cccc(C)n2)c1	2.4
Cc1nc(N)sc1-c1nnc(SCC(=O)Nc2ccccc2C(F)(F)F)n1C	i
COc1ccccc1CNC(=O)c1c(-c2ccccc2)nn(-c2ccccc2)c1C	0.5
CCOC(=O)/C(=N\Nc1ccc(Cl)cc1)c1csc(Nc2ccccc2)n1	i
O=C(OCCN=C1NS(=O)(=O)c2ccccc21)c1cccnc1	i
CCC(=O)NCCCOc1ccccc1	i
Cc1cccc(C)c1NC(=O)Cn1nc(-c2ccccc2)nc1-c1ccccc1	1.8
Cc1nc(C(C)(C)O)n(-c2ccccc2)n1	i
COc1ccccc1Nc1nc(N)nc(CSc2nccc(C)n2)n1	i
COc1ccc(Cn2c(N)c(C#N)c3nc4ccccc4nc32)cc1OC	1.3
Cc1cccc(NC(=O)C23CCC(C)(C2Br)C3(C)C)c1 (stereo unspecified)	1.6
CNC(=O)C12CCC(C)(c3nc4cc(C)c(C)cc4nc31)C2(C)C (stereo unspecified)	2.1
CCC(C(=O)Nc1cc(C)nn1-c1nc(C)cc(C)n1)c1ccccc1 (stereo unspecified)	2.1
Cc1cccc(C2CC(c3ccccc3)Nc3ncnn32)c1 (stereo unspecified)	2.2
COc1ccc(C(C(=O)NC2CCCC2)N(C(=O)c2snc(-c3ccc(F)cc3)c2N)c2ccccc2)cc1 (stereo unspecified)	i
O=C(Cn1nnc(-c2ccccc2NC(=O)C2CC2)n1)NC1CCCCC1	i
CC(=O)C1C(c2cccc(Oc3ccccc3)c2)NC(=O)NC1(O)C(F)(F)F (stereo unspecified)	0.3
CCN(CC)CCNC(=O)c1c(C)n(-c2ccccc2)c2cc(Br)c(OC)cc12	i
O=C(Nc1cccc(F)c1)NC1CC2CCCC(C1)N2C1CC1 (stereo unspecified)	i
Nc1c(C(=O)N2CCCCC2)sc(=S)n1-c1ccccc1	1.2
COc1ccc(OC)c(NC(=O)C2CCCN(S(=O)(=O)c3cccc4nsnc34)C2)c1 (stereo unspecified)	0.5
Cc1cc2n(c1)CCn1c(C)ccc1-2	i
O=C(Nc1cc(C(F)(F)F)ccc1-n1cncn1)c1ccc(Cl)cc1	i
CCn1c(SCC(=O)N2CCOCC2)nc(O)cc1=O	i
C=CCn1c(SCC(=O)NC2CCCCC2)nnc1-c1sc(N)nc1C	i
CCOc1ccc(CCNC(=O)C2CCN(c3nnc(-n4cccc4)s3)CC2)cc1	0.7
O=C(Cn1c(=O)n(Cc2ccco2)c(=O)c2cc(Cl)ccc21)NCC1CCCO1 (stereo unspecified)	0.1
O=C(Nc1ccc(-c2nc3ccccc3o2)c(O)c1)c1cc(-n2cnnc2)ccc1Cl	i
CC(C)(C#N)C(C)(C)c1nn[nH]n1	i
N#CC1=C(N)Oc2cc(N)ccc2C1C1CCCCC1 (stereo unspecified)	i
CCC(C)n1c(O)c(C(c2ccccn2)c2c(O)n(C(C)CC)c(=S)[nH]c2=O)c(=O)[nH]c1=S (stereo unspecified)	0.1
CCCCC(=O)Nc1cc(C)c2c(=O)oc3ccccc3c2n1	i
Cc1ccc(NCc2nnc(SCC(=O)NCc3ccco3)n2CC2CCCO2)c(C)c1 (stereo unspecified)	0.2
O=C(c1ccc(OCC2CCCO2)cc1)N1CCN(c2ccccc2)CC1 (stereo unspecified)	i
Cc1ccc(C)c(NC(=O)CSc2n[nH]c(-c3ccncc3)n2)c1	1.2
CCOC(=O)C1C(=O)NC(SCC(N)=O)=C(C#N)C1c1ccccc1OCC (stereo unspecified)	i
Cc1ccc(CN(CC(=O)N/N=C/c2ccccc2[N+](=O)[O-])S(=O)(=O)c2ccc(C)cc2)cc1	i
Cn1c(=O)c2c(nc(NCc3ccc4c(c3)OCO4)n2Cc2ccccc2Cl)n(C)c1=O	1.0
C=CCNc1nc(-c2sc(NC(C)=O)nc2C)cs1	i
CN(CC(=O)Nc1ccc(F)c(F)c1F)c1cnccn1	i
COCCn1c(SCc2nc3ccccc3c(=O)[nH]2)nnc1-c1ccncc1	0.5
Cc1cccc(OCCn2c(NC(=O)c3ccco3)nc3ccccc32)c1	1.4
O=C(C1CC1)N1CCc2cc(Br)cc(S(=O)(=O)NCCCN3CCCC3)c21	0.7
COc1ccc(C(=O)Sc2ccc(C)cc2)cc1OC	i
CCN1CCN(CCC(=O)Nc2ccccc2OC)CC1	i
Cc1nn(-c2ccccc2)c2[nH]c(=O)c(CNc3ccc(N4CCOCC4)cc3)cc12	i
CCOc1ccc(N2C(=O)CC(Sc3nccc(C)n3)C2=O)cc1 (stereo unspecified)	1.1
O=C(Nc1nc(-c2nc3ccccc3s2)cs1)c1ccco1	0.6
COc1ccccc1NC(=O)C1=C(C)NC(=O)NC1c1ccccc1F (stereo unspecified)	2.6

Random excerpt: 5 compounds from above, in no set order.
SMILES	H5N1 antiviral
Cc1nn(-c2ccccc2)c2[nH]c(=O)c(CNc3ccc(N4CCOCC4)cc3)cc12	i
COc1ccc(C(=O)Sc2ccc(C)cc2)cc1OC	i
CCOc1ccc(N2C(=O)CC(Sc3nccc(C)n3)C2=O)cc1 (stereo unspecified)	1.1
O=C(C1CC1)N1CCc2cc(Br)cc(S(=O)(=O)NCCCN3CCCC3)c21	0.7
O=C(Nc1nc(-c2nc3ccccc3s2)cs1)c1ccco1	0.6

(list continues)
SMILES	H5N1 antiviral
CSc1nc2sc3c(c2c(=O)[nH]1)CCCC3	i
NC(=O)C1CCN(C(=O)CSc2ccccn2)CC1	i
COc1ccc(OC)c(S(=O)(=O)N(C)CC(=O)O)c1	i
CC(C)(C)c1ccc(C(=O)c2c[nH]c(C(=O)NCCCN3CCOCC3)c2)cc1	i
Cc1ccccc1Cn1ccc(NC(=O)CCSc2nc(-c3ccco3)cc(C(F)(F)F)n2)n1	i
CC(NC(=O)c1ccc(N(C)C)cc1)C1CC2CCC1C2 (stereo unspecified)	i
COCCN1Cc2c(sc(C)c2C)N(C(=O)c2ccccc2)C1	i
CCOc1ccccc1NC(=O)c1cccc2c1C(=O)N(CCOC)C2	1.5
Cc1cc(=O)[nH]c(=S)n1-c1ccccc1	0.2
COC(=O)C(NC(=O)c1ccccc1)(Nc1nc(C)cs1)C(F)(F)F (stereo unspecified)	0.1

Entries above with a cyano group:
SMILES	H5N1 antiviral
COc1ccc(Cn2c(N)c(C#N)c3nc4ccccc4nc32)cc1OC	1.3
CC(C)(C#N)C(C)(C)c1nn[nH]n1	i
N#CC1=C(N)Oc2cc(N)ccc2C1C1CCCCC1 (stereo unspecified)	i
CCOC(=O)C1C(=O)NC(SCC(N)=O)=C(C#N)C1c1ccccc1OCC (stereo unspecified)	i

The listing continues.
SMILES	H5N1 antiviral
COc1ccc(OCC(=O)N/N=C2\CCc3ccccc32)cc1	0.3
Cc1cc(NS(=O)(=O)c2ccc(-c3ccccc3)cc2)no1	0.6
COC(=O)c1sccc1NC(=O)c1cccnc1	1.3
COCCNC(=O)C(=O)c1cc(C)n(-c2ccc([N+](=O)[O-])cc2)c1C	i
N#Cc1c(N)oc(-c2cccs2)c1-c1cccs1	i
CCOC(=O)c1cc2sccc2n1CC(=O)Nc1ccc(OC)cc1OC	i
CCc1nnc(NC(=O)CSc2nccn2-c2cccc(C)c2C)s1	2.0
O=C(CSc1nccc(=O)[nH]1)c1ccccc1Br	i
CCC(C)c1ccccc1NC(=O)COC(=O)c1ccc(C)c(NC(=O)c2ccco2)c1 (stereo unspecified)	i
CCc1nnc(NC(=O)CSc2nnc(CSc3nc(C)cc(C)n3)n2C)s1	0.8
COc1cccc(C2CC(c3ccc(Cl)cc3)n3nc(N)nc3N2)c1 (stereo unspecified)	0.1
COc1ccc(C(=O)NC(NC(=S)Nc2ccc(S(N)(=O)=O)cc2)C(Cl)(Cl)Cl)cc1 (stereo unspecified)	i
Cc1ccccc1NC(=O)c1cccc2nc3ccccc3nc12	i
Cc1cccc(C(=O)O/N=C2\CCSc3ccc(C)cc32)c1	i
Cc1sc(-c2ccncc2)nc1OC(=O)c1cc(Cl)cc(Cl)c1	0.5
CN(C)c1nn(C(=O)Nc2cccc(C(F)(F)F)c2)cc1-c1ccccc1	i
O=C(Nc1ccc2oc(-c3cccc4ccccc34)nc2c1)c1ncn[nH]1	i
COc1cc(-c2nc(-c3ccc(Br)o3)no2)cc(OC)c1OC	i
COc1ccc(-c2nc3nc(C)c(Cc4ccccc4)c(=O)n3[nH]2)cc1	10.2
Cc1ccc(S(=O)(=O)NCCC(=O)N2CCN(Cc3ccccc3)CC2)cc1	0.6

The closing 3 entries of the section before lead into the next.
SMILES	H5N1 antiviral
COc1cc(-c2nc(-c3ccc(Br)o3)no2)cc(OC)c1OC	i
COc1ccc(-c2nc3nc(C)c(Cc4ccccc4)c(=O)n3[nH]2)cc1	10.2
Cc1ccc(S(=O)(=O)NCCC(=O)N2CCN(Cc3ccccc3)CC2)cc1	0.6
O=C(C1CCCN1S(=O)(=O)c1cccc2cccnc12)N1CCN(c2ccccc2)CC1 (stereo unspecified)	3.2
Cc1ccc(-n2nc(C)c3c2NC(=O)CSC3c2ccc3c(c2)OCO3)cc1 (stereo unspecified)	i
COC(=O)/C(=C(/F)Sc1cc(C)c(O)c(C)c1)C(F)(F)F	i
CCN(CC)CC#CCC1(O)c2ccccc2-c2ccccc21	0.6
CC(C(=O)NCc1cccs1)N1C(=O)c2ccccc2C1=O (stereo unspecified)	i
CCC1(C)Cc2ccccc2-c2c1c(=O)n(-c1ccc(C)cc1)c1nnnn21 (stereo unspecified)	i
CCOc1cc(/C=C2\C(=O)N(c3nc(-c4ccc(Br)cc4)cs3)N=C2c2ccccc2)ccc1O	i
Cc1ccc(NC(=O)C2CCN(S(=O)(=O)c3cccc4cccnc34)CC2)nc1	1.4
COc1ccc2cc(CN(CC3CCCO3)S(=O)(=O)c3ccc(C(C)=O)cc3)c(=O)[nH]c2c1 (stereo unspecified)	i
O=C(CSc1nc2c(c(=O)n1-c1ccc(Br)cc1)SCC2)NCC1CCCO1 (stereo unspecified)	i
CCOc1ccc(NS(=O)(=O)c2cc(OC)ccc2OC)cc1	0.2
CC(C)C(OC(=O)c1cc2occc2n1C)C(=O)NCc1ccc2c(c1)OCO2 (stereo unspecified)	1.8
CC(=O)Nc1ccc2nc(-c3cccs3)[nH]c2c1	1.7
O=C(CSc1ccc(Cl)cc1)N1CCN(c2ccc(Cl)cc2[N+](=O)[O-])CC1	0.1
O=C(c1cnc(N2CCN(c3ncccn3)CC2)c2ccccc12)N1CCN(c2ncccn2)CC1	1.4
O=C(Nc1cccc(C(F)(F)F)c1)c1cccn(Cc2ccc3c(c2)OC(F)(F)O3)c1=O	i
O=C1C(Cc2ccc(O)cc2)NC(=S)N1c1ccccc1 (stereo unspecified)	0.7
COc1ccc(CC(=O)N2CCCC(C)C2)cc1 (stereo unspecified)	i
CCn1ccc2cc(OC)ccc2c1=S	i
O=C(NCCCO)NC12CC3CC(CC(C3)C1)C2	0.5
COc1cc(C(=O)OC(C)CN2CCOCC2)cc(OC)c1OC (stereo unspecified)	1.2
OC(COc1ccc(Cl)cc1)CN1CCCCC1 (stereo unspecified)	0.4
Cc1ccc(-c2ccc(CCC(=O)O)n2C(C)C)cc1	2.1
Cc1ccc(NC(=O)C2CCCNC2=O)nc1 (stereo unspecified)	0.5
c1ccc(-c2ccc(-c3nc(-c4ccccn4)no3)cc2)cc1	i
CCCCc1c(C)c2cc(C)ccc2[nH]c1=O	i
CN(C)c1ccc(NC(=O)CN2C(=O)CN=C(c3ccccc3)c3ccccc32)cc1	1.0
COc1ccccc1CNc1nc2nc(C)c(C)c(=O)n2[nH]1	i
O=C(CNS(=O)(=O)c1cccs1)N1CCCC1	0.3
CCCCNCc1cc(Br)c(OCc2cccs2)c(OC)c1	i
CCOc1ccc(C2CC(c3ccccc3)Nc3nc(N)nn32)cc1 (stereo unspecified)	i
CCOC(=O)N1CCN(C(=O)CN2C(=O)COc3ccc(C(C)(C)C)cc32)CC1	i
CCOC(=O)c1sc2ncn(C(CC)C(=O)OC)c(=O)c2c1C (stereo unspecified)	1.2
O=C(NCc1cccnc1)NC(C(F)(F)F)C(F)(F)F	i
CCOC(=O)c1nc2ccccc2s1	0.0
CC(=O)N1CCN(c2ccccc2NC(=O)COc2cc(C)ccc2C(C)C)CC1	i
COc1ccc(N2CC(C(=O)OCC(=O)c3ccccc3)CC2=O)cc1 (stereo unspecified)	i
N#Cc1c(C(F)(F)F)cc(-c2ccc(Cl)cc2)[nH]c1=O	i
O=C(COc1ccccc1Cl)NCc1ccco1	3.3
Cc1ccc(C)c(-n2c(-c3ccc4c(c3)OCO4)n[nH]c2=S)c1	0.9
Cc1ccc(-c2nc3ncccn3c2Nc2ccc3c(c2)OCO3)o1	1.0
CCC(=O)NCc1nc2ccccc2n1Cc1ccccc1F	0.1
N#CCC(=N)N1CCN(c2ccccc2Cl)CC1	i
COc1ccc(NC(=O)c2cc3n(n2)C(C(F)(F)F)CC(c2ccc4c(c2)OCO4)N3)cc1OC (stereo unspecified)	i
Nc1nc(-c2ccc(F)cc2)cc(C(F)(F)F)n1	1.3
COCCCNC(=O)c1ccc2c(=O)n(Cc3ccc4c(c3)OCO4)c(=S)[nH]c2c1	i
Cn1c(CNc2cccc(Cl)c2)nnc1SCC(=O)OC1CCCCC1	i
Cc1noc(C)c1CSCC(=O)N1CCN(c2ccc([N+](=O)[O-])cc2)CC1	i
CN(CC(=O)NCc1ccc(Cl)cc1)S(=O)(=O)c1cccc2cccnc12	1.2
Nc1ccc(Nc2ccncc2[N+](=O)[O-])cc1	0.3
COc1ccc(CC(CC(=O)O)C(=O)Nc2ccc(OC)cc2)cc1 (stereo unspecified)	i
CCc1cc(C(=O)O)c(NC(=O)C(c2ccccc2)c2ccccc2)s1	0.2

Screens deposited in PubChem by SRMLSC.
